Compound activity deposited in PubChem BioAssay by National Center for Advancing Translational Sciences (NCATS).
YjeE inh = displaces an ADP probe from E. coli YjeE (TsaE). Potency, µM. P0AF67. AID 605. purified YjeE, fluorescence polarisation of a bound ADP probe. 71,000 tested, 0.05% active; active = well fitted falling curve; inconclusive = weaker or top-dose-only fall, or a rising curve; inactive = flat or poorly fitted curve;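 also: top concentration of the series not given in the record; excess ADP was the control for the full effect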
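Fluorescence polarization of a BODIPY Texas Red–ADP probe (2 uM) bound to purified YjeE (10 uM) was read after 15 min room-temperature incubation with compounds. Loss of polarization marks inhibitors; ADP serves as titrated control.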
PK Bst = pyruvate kinase (B. stearothermophilus) modulation. partly purified Bacillus stearothermophilus pyruvate kinase, luminescence ATP production; ribose 5-phosphate activator present at AC10. Potency, µM. 51,000 tested, 1.2% active. AID 361; in the data active means potency below about 11 µM; inconclusive means mostly about 12 µM to 25 µM; inactive means weaker than that;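 the screen sought inhibitors and activators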;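 also: potency is read from the fitted curve at half-maximal effect; scaled between full activation by ribose 5 phosphate and full inhibition by luteolin; about four in five hits inhibit and the cells do not say which; series up to 57 µM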
* = called active by the depositor; i = inactive; · = no result given.

SMILES	YjeE inh	PK Bst
COC(=O)c1cc(OC)c(OC)cc1NC(=O)c1ccccc1	i	·
CCOC(=O)c1c(OCC)[nH]c2c1cc(O)c1ccccc12	i	·
CCNc1ncc2nc(-c3ccccc3)c(=O)n(C3CC3)c2n1	i	·
CCc1nnc(NC(=O)CCN2C(=O)c3ccccc3S2(=O)=O)s1	i	>57
Cc1cc(NC(=O)Cc2cn3ccsc3n2)n(-c2ccccc2)n1	i	>57
C[C@@H](CNC(N)=O)NC(N)=O	i	·
COc1ccc(C(O)CNc2ccc(C)cc2)cc1 (stereo not drawn)	i	>57
CC1Cc2ccccc2N1C(=O)COC(=O)Cn1cnc2ccccc2c1=O (stereo not drawn)	i	>57
CN(C)c1nc(N)nc(CSc2nnnn2-c2cccc3ccccc23)n1	i	1.6*
CN1CCC(N(C)C(=O)COc2ccccc2-c2ccccc2)CC1	i	>57
CC(C)(C)N1C(=O)c2ccc(C(=O)NCc3ccco3)cc2C1=O	i	>57
Cc1cc(C(=O)N[C@@H](c2ccccc2)[C@]2(C)C[C@H]2[C@@H](C)C(=O)Nc2ccc3ccccc3c2)n(C)n1	i	·
CCOc1ccccc1NC(=O)c1ccccc1-c1nc(-c2ccccc2OC)no1	i	·
COC(=O)Cc1c(C)c2cc(Cl)c(OC(=O)c3ccco3)cc2oc1=O	i	>57
CC(=O)c1ccc(NC(=O)CCC(=O)OCC(F)(F)C(F)F)cc1	i	·
CC(C)(C)NC(=O)c1ccc2c(c1)N(CC(=O)N1CCN(c3ccccc3F)CC1)C(=O)C(C)(C)O2	i	>57
COC(=O)c1[nH]c2cccc(OC)c2c1NC(=O)CN1CC2(C)CC1CC(C)(C)C2 (stereo not drawn)	i	>57
Cc1cc(CCC(=O)O)c(C)cc1CCC(=O)O	·	>26
Cc1ccnc(NS(=O)(=O)c2ccc(NS(=O)(=O)c3cccs3)cc2)n1	i	>57
O=C(CSc1nc2ccccc2[nH]1)c1ccco1	i	·
Cc1cc(S(=O)(=O)NCCN(C)C)c(C)s1	i	>57
CCOc1nc(-c2ccc(OC)cc2)ccc1-c1noc(-c2cc(OC)c(OC)c(OC)c2)n1	i	>57
OCCn1c(CSc2nnc(-c3ccco3)n2-c2ccccc2)nc2ccc(Cl)cc21	i	>57
COc1cc(Cl)c(S(=O)(=O)N2CCN(Cc3ccc4c(c3)OCO4)CC2)cc1Cl	i	·
O=C(COc1ccc(S(=O)(=O)N2CCCC2)cc1Cl)Nc1ccc2c(c1)OCO2	i	>57
C=CCNC(=O)c1cccc(Br)c1	i	·
CC(C)(Oc1ccc(Cl)cc1)C(=O)NCCCn1ccnc1	i	>57
Cc1cc(NO)nc(-c2ccc(Br)cc2)n1	i	·
N=C(N)[C@H](N=Nc1ccccc1)C(N)=O	i	·
COc1cc(NS(=O)(=O)c2ccc(OC)c(OC)c2)cc(OC)c1	i	>57

PK Bst, hit marks shown above
SMILES	YjeE inh	PK Bst
CN(C)c1nc(N)nc(CSc2nnnn2-c2cccc3ccccc23)n1	i	1.6*

Molecules listed so far that contain a furan ring, fused or not, in the order listed:
SMILES	YjeE inh	PK Bst
CC(C)(C)N1C(=O)c2ccc(C(=O)NCc3ccco3)cc2C1=O	i	>57
COC(=O)Cc1c(C)c2cc(Cl)c(OC(=O)c3ccco3)cc2oc1=O	i	>57
O=C(CSc1nc2ccccc2[nH]1)c1ccco1	i	·
OCCn1c(CSc2nnc(-c3ccco3)n2-c2ccccc2)nc2ccc(Cl)cc21	i	>57

(more compounds)
SMILES	YjeE inh	PK Bst
O=C(Nc1ccccn1)[C@@H]1CCC(=O)N1C(=O)OCc1ccccc1	i	>57
CCOC(=O)N1CCN(c2c(NCc3cccs3)c(=O)c2=O)CC1	i	·
CS(=O)(=O)Nc1ccccc1C(=O)Nc1ccc2c(c1)OCCO2	i	>57
CN(Cc1ccccc1)c1nc2c(c(=O)[nH]c(=O)n2C)n1CCCc1ccccc1	i	>57
COCC(=O)Nc1cc(OC)ccc1OC	i	>57
COC(=O)c1cc(NC(=O)Cn2c(=O)cnc3ccccc32)cc(C(=O)OC)c1	i	>57
CCCNC(=O)CN(C)C(=O)c1n[nH]c2ccccc12	i	>57
CN(C)CCNC(=O)c1ccc(COCC(F)(F)F)cc1	i	>57
O=C(Nc1ccc(Cc2ccc(NC(=O)N3CCOCC3)cc2)cc1)N1CCOCC1	i	>57
COc1ccc(OC)c(C2CC(=O)N3CN(c4cccc(Cl)c4)CSC3=C2C#N)c1 (stereo not drawn)	i	·
Cc1cccc(N2CCN(C(=O)c3ccncc3)CC2)c1C	i	>57
O=C(NCc1ccco1)C1CCCN(S(=O)(=O)c2ccc(-n3cnnn3)cc2)C1 (stereo not drawn)	i	>57
CCCN1C(=O)c2cc(C(=O)NC3CCCC3)ccc2C1O (stereo not drawn)	i	·
Cc1cc(=O)[nH]c(Nc2cccc(C(F)(F)F)c2)n1	i	>57
N#Cc1nc(COc2ccccc2)oc1NCCCn1ccnc1	i	>57
O=C1c2cccnc2C(O)N1Cc1ccccc1 (stereo not drawn)	i	>57
COC(=O)C1=C(C)Nc2ncnn2C1c1ccc(C)o1 (stereo not drawn)	i	·
Brc1ccc(-c2nn3c(-c4ccccn4)nnc3s2)o1	i	·
O=C(CSc1ccccc1C(=O)O)Nc1cccc(C(=O)O)c1	i	>57
O=C(NCc1ccccc1)c1c(F)c(F)c(F)c(F)c1F	i	>57
Oc1cc(O)c2c(c1)O[C@H](c1ccc(O)c(O)c1)[C@@H](O)C2	i	·
CC1CCC(C(=O)NC(C(=O)NCCCN2CCOCC2)C(C)C)CC1 (stereo not drawn)	i	>57
Cc1nnc2n(-c3ccccc3)c(=O)c3c4c(sc3n12)COC(C)(C)C4	·	>26
O=S(=O)(Nc1cnc2ccccc2c1)N1CCCCCC1	i	>57
CCCc1[nH][nH]c(=O)c1C(c1cccc(Cl)c1)C(C#N)C#N (stereo not drawn)	i	>57
CCOC(=O)c1nnn(-c2nonc2OC)c1-c1ccccc1	i	>57
CCOC(=O)N1CCC(N(C(=O)Nc2ccccc2)C(C)CC)CC1 (stereo not drawn)	i	>57
O=C(O)c1cc(S(=O)(=O)Nc2ccc3oc(=O)sc3c2)ccc1O	i	>11
Cc1cc(C)c2c(n1)nn1c(-n3ccnc3)cc(C)nc21	i	·
N#C/C(=C\c1ccc(O)c(O)c1)S(=O)(=O)c1ccccc1	i	>57
O=C(NCc1nnc(SCC(=O)N2CCN(c3ccccc3)CC2)o1)c1ccco1	i	>57
O=C(Nc1ccccc1)N1CCC2(CC1)CCN(S(=O)(=O)c1ccccc1)CC2	i	·
Cc1ccc(SCC(=O)NCc2ccco2)cc1	i	>57
Cc1ccc(S(=O)(=O)N2CCN(c3nc4ccccc4nc3-n3nc(C)cc3C)CC2)cc1	i	>57
N=C(N)CCNC(=O)[C@@H]1CCC(N)=N1	i	·
CCOC(=O)c1[nH]c2cc(OC)c(OC)cc2c1NC(=O)CN1CCN(C)CC1	i	>57
COc1ccc(CNc2ccnc(-c3ccoc3)n2)c(OC)c1	i	·
CCCCCCNc1c(C(=O)OCC)c(=O)[nH]c2ccccc12	i	>57
O=C(O)c1cc(N2C(=O)C3C4C=CC(C4)C3C2=O)ccc1NCc1cccnc1 (stereo not drawn)	i	>57
CCOC(=O)C1CCN(C(=O)N2CCOCC2)CC1	i	>57
COc1cc(CNc2ncn[nH]2)cc(Br)c1OC	i	>57
CCn1cc(C(=O)NCc2ccco2)c2cc(OC)c(OC)cc2c1=O	i	>57
CN(C(=O)c1cnccn1)c1nnc(-c2cnccn2)s1	i	>57
CSc1nc(C)cc(-n2cc(F)c(=O)[nH]c2=O)n1	i	·
COc1ccc2c(=O)c(-c3nc(C)cs3)coc2c1	·	4.1*
COc1ccc(N2CCN(c3oc(COc4ccccc4)nc3C#N)CC2)cc1	i	>57
Nc1nsc2ccccc12	i	>57
CS(=O)(=O)Nc1cccc(-c2ccc3ncnc(N4CCOCC4)c3c2)c1	i	·
COc1ccc(C)cc1-n1c(SCC(=O)Nc2cc(C)on2)nc2sc(C)c(C)c2c1=O	i	>57
COc1cccc(-c2nc(NCCNC(C)=O)c3ccccc3n2)c1	i	·

(further entries)
SMILES	YjeE inh	PK Bst
Cc1sc2nc(CN3CCCC3)nc(N3CCN(S(=O)(=O)c4cccs4)CC3)c2c1C	i	>57
COC(=O)C1CCN(C(=O)c2cc(OC)c(OC)c(OC)c2)CC1	i	>57
CCOC(=O)C1=C(N)Oc2cc(C)n(C)c(=O)c2C1c1ccncc1 (stereo not drawn)	i	>57
Cn1c(=O)cc(-c2ccccc2)c2ccccc21	i	>57
CCOC(=O)C(C)(C)Oc1ccc(Cl)cc1	i	·
Cc1cc(=O)[nH]c2c1c(C)nn2-c1ccccc1	i	>57
CC(=O)CCS(=O)(=O)c1ccc(C)c(C)c1	i	·
Cc1cc(C)nc(SCc2nc3ccccc3n2C)n1	i	>57
CCCCNc1nc(SC)nc2nc[nH]c12	i	·
CSC1=C(C#N)C(c2ccc(Cl)cc2)C2=C(CC(C)(C)CC2=O)N1 (stereo not drawn)	i	·

Record cards, from the list above.
`COC(=O)C1CCN(C(=O)c2cc(OC)c(OC)c(OC)c2)CC1` is listed as YjeE inh: i; PK Bst: >57
`CCOC(=O)C1=C(N)Oc2cc(C)n(C)c(=O)c2C1c1ccncc1` (stereo not drawn) is listed as YjeE inh: i; PK Bst: >57
`CC(=O)CCS(=O)(=O)c1ccc(C)c(C)c1` is listed as YjeE inh: i; PK Bst: ·

(further entries)
SMILES	YjeE inh	PK Bst
NCCSCCC(=O)O	i	·
CC1CCN(CC(O)COc2ccc(F)cc2)CC1 (stereo not drawn)	i	·
Cc1cc(C)nc(N2CCC(C(=O)NCCc3ccc(F)cc3)CC2)n1	i	>57
CCC1CCCCN1C(=O)CSc1nnc(-c2ccc(Cl)s2)o1 (stereo not drawn)	i	>57
CCn1cc(C(=O)NCc2ccco2)c(=O)c2cc(S(=O)(=O)N3CCC(C)CC3)ccc21	i	>57
COc1ccc(CNC(=O)COC(=O)c2c[nH]c(=O)[nH]c2=O)cc1OC	i	>57
O=C(NCc1ccccn1)C1CCN(S(=O)(=O)c2ccccc2)CC1	i	>57
CN1CCC2(CC1)CCN(C(=O)c1cc(C(F)(F)F)cc(C(F)(F)F)c1)CC2	i	·
COc1ccc(C(CNC(=O)c2ccc3c(c2)C(=O)N(CCC(C)C)C3=O)N2CCOCC2)cc1 (stereo not drawn)	i	>57
Cc1cc(=O)c2c(O)c(O)ccc2o1	i	>57
CC(C)NC(=O)N1CCC2(CC1)CCN(C(=O)c1ccco1)CC2	i	·
CCOc1ccc(NC(=O)Cn2nnc(C(=O)NCc3ccccc3OC)c2N)cc1	i	>57
O=C(CSc1nc2ccccc2c(=O)n1-c1ccc(Cl)cc1)c1ccco1	i	>57
O=C(c1ccc(COCC(F)(F)F)o1)N1CCCCCC1	i	>57
CCC(C)NC(=O)c1cc(OC)c(OC)c(OC)c1 (stereo not drawn)	i	>57
O=C(CCCN1CCC(c2ccccc2)C1)c1ccc2c(c1)OCCO2 (stereo not drawn)	i	>57
Cc1ccc(-c2noc(CCC(=O)NCCN3CCN(Cc4ccccc4)CC3)n2)cc1	i	>57
CCc1ccccc1NC(=O)c1cnc2scc(C)n2c1=O	i	·
Cc1cc(N2CCN(C(=O)c3ccco3)CC2)n2nc(-c3cccc(F)c3)cc2n1	i	·
Cc1cccnc1NC(=O)CCCN1C(=O)c2ccccc2C1=O	i	>57
CCCn1c(=O)c2[nH]c(-c3ccccc3)nc2n(CCC)c1=O	i	·
N/C(=N\O)c1ccc(NC(=O)c2ccc(Br)o2)cc1	i	>57
O=C(Nc1ccccn1)C12CC3CC(C1)CC(C(=O)Nc1ccccn1)(C3)C2	i	>57
COc1cccc(NC(=O)CSc2nncn2-c2ccccn2)c1	i	>57
CCn1c(=O)c2c(nc3n2CC(C)CN3CCc2ccccc2)n(C)c1=O (stereo not drawn)	i	>57
COC(=O)c1ccc(C(NC(=O)OCc2ccccc2)/C(C)=C/[C@@H](C)C(=O)N(C)Cc2cccnc2)cc1 (stereo partly drawn)	i	·
Cc1ccc(C)c(-n2c(CNC(=O)c3ccco3)nnc2SCC(=O)N2CCc3ccccc32)c1	i	>57
COc1ccc(N(CC(=O)Nc2cc(OC)ccc2OC)S(C)(=O)=O)cc1	i	·
COc1cc(OC)cc(C(=O)NCc2nc(-c3ccccc3)no2)c1	i	>57
O=C(CSc1nc(-c2ccco2)cc(C(F)(F)F)n1)Nc1ccc2c(c1)CCC2	i	>57
CCn1cc(C(=O)N2CCOCC2)c(=O)c2cc(S(=O)(=O)N(C)C)ccc21	i	·
CCOC(=O)Cc1csc(NC(=O)C2CCCCC2C(=O)O)n1 (stereo not drawn)	i	>57
O=c1c2cnn(-c3ccccc3)c2ncn1Cc1ccccn1	i	>57
O=c1c(CCc2ccccc2)nc2cnc(Oc3cccc(Cl)c3)nc2n1C[C@H]1CCCO1	i	·
CCOc1ccc(C(=O)NCCC(=O)NCCCC(=O)O)cc1	i	·
COc1cccc(-c2nc(NCCN3CCOCC3)c3ccccc3n2)c1O	·	i
CN(C)c1ccc(-c2nn3c(C4CCCCC4)nnc3s2)cc1	i	>57
COc1ccc(-n2c(=O)c(-c3ccccc3)nc3cnc(N4CCN(C)CC4)nc32)cc1	i	·
Cc1cc(C)c2nc(N3CCN(C)CC3)c(C#N)cc2c1	i	·
COc1cc2nc(N(C)CCCNC(=O)[C@@H]3CCCO3)nc(N)c2cc1OC	i	·
Cc1[nH]c2ccccc2c1SCCNC(=O)c1ccc(Br)o1	i	>57
COCC(=O)N(Cc1nc2ccccc2c(=O)[nH]1)Cc1cccs1	i	>57

A portion of the library. The share of hits here may be higher or lower than overall.
